Source: PubChem BioAssay
PMP22 txn prim = Cell-based coincidence reporter assay to measure PMP22 gene transcription in S16 Pmp22-F2sN cells - Primary screen; S16 Pmp22-F2sN Schwann cells (luciferase reporters placed in the Pmp22 gene), FLuc/NLuc coincidence luminescence, 24 h; Potency, µM (top dose mostly 57.5 µM), for inactives: at the highest dose activity change, negative = inhibition, actives largely listed as inhibitors; actives 2% (n = 43,000); AID 1508649, 2021; active = clear falling dose curves in both reporters; inconclusive = both reporters move, but less clearly or upward; inactive = either reporter flat; the % is the NLuc reporter signal; also: % is scaled to controls: 0 for no effect and ±100 for the full control effect; some results filed as inactive show a strong effect at the top dose
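Luminescent read-out of sequential FLuc and NLuc signals from a reporter embedded in the Pmp22 3' UTR of S16 Schwann cells, taken after 24 h compound exposure at 37C; compounds reducing both signals score as inhibitors of expression.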
HTT prom inh = Primary qHTS for Identification of Small Molecule Inhibitors of Huntingtin Promoter Activity; HEK293 HTT promoter firefly luciferase reporter (activity 0% = vehicle and -100% = no light), 24 h; AID 1508623, 2021; actives 0.93% (n = 48,000); Potency, µM (titrated, usually from 57.5 µM), for inactives: at the highest dose activity change, negative = inhibition, most hits filed as inhibitors; active = well fitted inhibition curve with a large enough effect; inconclusive = small, poorly fitted or top-dose-only effect; inactive = no such curve, though single readings can be large or run the other way; also: nearly all actives have a fitted effect of over 50% in size
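HEK293 luciferase promoter-reporter cells (2,500/well) plated 24 h, then compounds added at up to 57.5 uM final for 24 h at 37 °C. Firefly luminescence by Dual-Glo, normalized to vehicle (0%) and zero RLU (-100%).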
An asterisk follows results filed as active; ? = inconclusive; . = no result given; [ ] = remark or other dose. Potency is read from the fitted curve at half-maximal effect.

Second line of a record: PMP22 txn prim	HTT prom inh
Cc1cc(C)cc(-n2c(C)nc3cc(C(=O)NCc4ccc(F)cc4)ccc32)c1
 : 1%	-6%
CC(=O)c1ccc(N2CCN(c3nc4ccccc4c4nc(-c5cccc(C)c5)nn34)CC2)cc1
 : -12%	3%
Cc1ccc(C(=O)c2cn(Cc3ccccc3)c3cc4c(cc3c2=O)OCCO4)cc1
 : -18%	5%
COc1cccc(CNC(=O)CN2C(=O)N(c3cccc(Cl)c3)S(=O)(=O)c3ccccc32)c1OC
 : ?	?
CCc1ccccc1NC(=O)c1nn(-c2ccc(C)cc2)c(=O)c2c1c1ccccc1n2C
 : -73%	-5%
CCc1c(C)nc2nncn2c1NCc1ccccc1
 : ?	?
COc1ccc(Cn2c(CCC(=O)NCc3cccc(Cl)c3)nc3cccnc32)cc1
 : -19%	-18%
CCc1nc2ccccc2n1CCCCOc1ccc(C)cc1
 : -41%	?
COc1ccc(C(CNC(=O)c2cccc([N+](=O)[O-])c2)N2CCOCC2)cc1 (configuration not stated)
 : -1%	-2%
Cc1cc(C)cc(-n2ccn3cnnc3c2=O)c1
 : 1%	-6%
COc1ccc(Nc2c3c(nc4nncn24)CCC3)cc1Cl
 : ?	?
CCOc1cc(CNC(=O)C2CCN(c3nc4ccccc4[nH]3)CC2)cc(OCC)c1OCC
 : 6%	-8%
COCCCNC(=O)c1sc2nc(C)c(C(=O)Nc3ccc(C)cc3C)c(-c3ccccc3Cl)c2c1N
 : ?	-23%
CC(C)c1ccc(NC(=O)c2ccc3c(c2)CCCN3S(C)(=O)=O)cc1
 : ?	10µM*
Cc1ccc(-c2c(CN3CCN(c4cccc(C)c4)C(C)C3)csc2C)cc1 (configuration not stated)
 : -5%	?
CC1=C(c2ccc(C)c(C)c2)S(=O)(=O)N=C1N1CCC(C(=O)NCCc2ccco2)CC1
 : ?	?
O=C(Nc1ccccc1)c1cn(-c2ccccc2)nc1-c1ccccc1
 : ?	-29%
CCN(CC)C(=O)c1sc2c(c1C)c(=O)n(-c1ccc(C)c(C)c1)c(=O)n2CC(=O)Nc1ccc(F)cc1
 : 23%	-29%
COc1ccc(NC(=O)c2ccco2)cc1NC(=O)c1c(OC)cccc1OC
 : 1%	4%
CCC(C)NC(=O)CCCN1C(=O)CCn2nc(-c3cccn3C)cc21 (configuration not stated)
 : -8%	3%

Next section
Second line of a record: PMP22 txn prim	HTT prom inh
CCOc1ccc(NC(=O)NCCn2nnc3cc(S(=O)(=O)N(C)C)ccc32)cc1
 : -17%	-13%
Cc1c2cnn(-c3ccccc3)c(=O)c2c(C)n1CC(=O)NCCc1ccc(Cl)cc1
 : -21%	-14%
CCCCn1cc(S(=O)(=O)c2ccc(OC)cc2)c(=O)c2cc(CC)ccc21
 : ?	-27%
CCOc1ccccc1NC(=O)Cn1c(=O)n(CCC(C)C)c(=O)c2cccnc21
 : ?	-7%
CCOC(=O)c1cnc2cc(F)c(F)cc2c1Nc1ccccc1O
 : -8%	-4%
CCOC(=O)c1nc(Nc2ccc(C(=O)OCC(C)C)cc2)c2ccccc2n1
 : ?	-15%
CCOc1ccccc1CNC(=O)CCn1c(=O)c2cccn2c2ccc(F)cc21
 : 14µM*	-9%
COc1cccc(CNC(=O)c2cc3c(-c4ccccc4F)nn(C)c3s2)c1
 : ?	?
COc1cccc(CNCCSc2nnnn2C)c1OCc1ccc(Cl)cc1
 : ?	-15%
COc1ccccc1OCCSc1nc2ccccc2n1CC(=O)N1CCOCC1
 : 22%	4%
CCc1ccc(CNC(=O)CN2C(=O)CSc3c2c(C)nn3-c2ccccc2)cc1
 : -15%	-23%
CCOC(=O)c1ccc(NC(=O)C(CC)Sc2nncn3c2cc2oc(C)cc23)cc1 (configuration not stated)
 : -25%	0%
Cc1cccn2c(=O)c3cc(C(=O)NC(C)c4ccccc4)c(=N)n(CCOCCO)c3nc12 (configuration not stated)
 : -28%	-1%
O=C(NCCc1ccccc1)c1ccc(CS(=O)(=O)c2ccc(Cl)cc2)o1
 : -51%	-9%
Cc1cccc(NC(=O)Cn2nc3c4ccccc4n(Cc4ccccc4)cc-3c2=O)c1
 : ?	-8%
COC(=O)c1ccc(NC(=O)Cn2nc(C(=O)Nc3ccc(C)cc3)ccc2=O)cc1
 : 15%	-10%
Cc1ccc(C)c(N2CCN(CCCNC(=O)c3ccc4nc(N5CCC(C)CC5)sc4c3)CC2)c1
 : ?	-84%
COc1ccc(N2CC(C(=O)Nc3ccccc3-c3nc(-c4ccc(C)cc4)no3)CC2=O)cc1 (configuration not stated)
 : -15%	6%
COc1ccc(OC)c(NC(=O)Cn2ncc3c2-c2ccccc2OC3)c1
 : 2%	-17%
CC1CCCCN1C(=O)CSc1nc(-c2ccccc2)no1 (configuration not stated)
 : ?	56%[activator]

(further entries)
Second line of a record: PMP22 txn prim	HTT prom inh
COc1ccc(Cl)cc1-n1cc(-c2ccccc2)nc1SCC(=O)Nc1ccc(C)cc1
 : ?	?
COc1cc2nc(SCC(=O)Nc3cccc(C)c3)n3nc(-c4ccccc4)nc3c2cc1OC
 : 8%	-1%
CCOCCCNC(=O)c1ccc(-n2c(-c3ccccc3)cc3c2CCCCC3)cc1
 : -57%	13%
CCOCCc1nn2c(=O)cc(COC(=O)c3ccccc3NC(=O)C3CCCCC3)nc2s1
 : ?	-14%
CCOC(=O)c1ccc(Nc2nn3c(=O)c4ccccc4nc3s2)cc1
 : 3%	1%
Cc1nn(-c2ccccc2)c2c1N(CC(=O)N1CCN(c3ccc(Cl)cc3)CC1)C(=O)CS2
 : -7%	?
CCOc1ccc(N(CC)S(=O)(=O)N2CCCC(C(=O)Nc3ccc(NC(C)=O)cc3)C2)cc1 (configuration not stated)
 : 9%	-9%
Cc1ccc2nc3sc(C(=O)Nc4ccc(F)cc4)cc3cc2c1
 : 1%	31%[activator]
CC(C)Oc1ccccc1NC(=O)CSc1nccn1C
 : 18%	-12%[11.5 µM]
Cc1nc(-c2ccc(F)cc2)sc1CCNC(=O)c1cccs1
 : ?	?
Cc1cccc(N2CCN(C(=O)c3noc4c3COc3ccc(C)cc3-4)CC2C)c1 (configuration not stated)
 : -16%	-9%
Oc1c(C(c2ccccc2)N2CCCC2)sc2nc(-c3ccco3)nn12 (configuration not stated)
 : 27%	-2%
O=C(Nc1ccc(OC(F)(F)F)cc1)c1noc2c1CCCC2
 : -8%	107%[activator]
CCc1nn(CC(=O)NCCc2ccc(OC)c(OC)c2)c(=O)c2cc3occc3n12
 : -4%	-8%
CCCC(=O)N1c2nc(C(C)C)nn2C2(CCCCC2)[C@@H]2CCCC[C@@H]21
 : ?	-6%
Cc1nnc(NC(=O)c2nc(SCc3ccccc3F)ncc2Cl)s1
 : -9%	-11%
Cc1nnc2c3ccccc3nc(Nc3cccc(O)c3)n12
 : ?	6%
COCCn1c(C)cc(O)c(C(c2ccccc2)N2CCCCC2)c1=O (configuration not stated)
 : -15%	-11%
COc1cccc(CNC(=O)c2nn(C)c3c2CS(=O)(=O)c2ccccc2-3)c1
 : 3%	-17%
COc1ccc(CCNC(=O)c2ccc3c(Cl)c4c(nc3c2)CCCC4)cc1OC
 : ?	?

Structural class: those above with fluorine (nine)
Second line of a record: PMP22 txn prim	HTT prom inh
Cc1cc(C)cc(-n2c(C)nc3cc(C(=O)NCc4ccc(F)cc4)ccc32)c1
 : 1%	-6%
CCN(CC)C(=O)c1sc2c(c1C)c(=O)n(-c1ccc(C)c(C)c1)c(=O)n2CC(=O)Nc1ccc(F)cc1
 : 23%	-29%
CCOC(=O)c1cnc2cc(F)c(F)cc2c1Nc1ccccc1O
 : -8%	-4%
CCOc1ccccc1CNC(=O)CCn1c(=O)c2cccn2c2ccc(F)cc21
 : 14µM*	-9%
COc1cccc(CNC(=O)c2cc3c(-c4ccccc4F)nn(C)c3s2)c1
 : ?	?
Cc1ccc2nc3sc(C(=O)Nc4ccc(F)cc4)cc3cc2c1
 : 1%	31%[activator]
Cc1nc(-c2ccc(F)cc2)sc1CCNC(=O)c1cccs1
 : ?	?
O=C(Nc1ccc(OC(F)(F)F)cc1)c1noc2c1CCCC2
 : -8%	107%[activator]
Cc1nnc(NC(=O)c2nc(SCc3ccccc3F)ncc2Cl)s1
 : -9%	-11%

Additional entries follow.
Second line of a record: PMP22 txn prim	HTT prom inh
CCn1c(C(=O)Nc2cc(Cl)ccc2C)cc2sc(Cl)cc21
 : -32%	-30%
COc1ccc(-c2cccc(NS(=O)(=O)c3ccc(NC(C)=O)cc3)c2)nn1
 : ?	?
COc1ccc(Cl)cc1S(=O)(=O)N1CCN(Cc2cccc(F)c2)CC1
 : -18%	-30%
COc1ccc(OCCCn2c(C)nc3cc(C)c(C)cc32)cc1
 : ?	?
CCN1CCN(C(=O)c2ccc3c(c2)N(Cc2cccc(Cl)c2)C(=O)c2ccccc2S3=O)CC1 (configuration not stated)
 : 3%	-5%
Oc1c(C(c2cccc(Br)c2)N2CCCC2)sc2nc(-c3ccco3)nn12 (configuration not stated)
 : 16%	5%
Cc1ccc(-n2ncc(C(=O)Nc3ccc4c(c3)OCCO4)c2C2CCN(C(=O)OC(C)(C)C)CC2)cc1C
 : ?	-5%
CCN(CC)CCNC(=O)C(=O)NCC(c1cccnc1)N1CCN(c2ccccc2)CC1 (configuration not stated)
 : ?	-23%
Nc1ccn([C@@H]2O[C@H](CO)[C@H](O)C2(F)F)c(=O)n1
 : .	?
CCC(C)NC(=O)C1CCC(CNS(=O)(=O)c2ccc(Cl)cc2)CC1 (configuration not stated)
 : -37%	-18%
COc1ccccc1NC(=O)C1=C(C)Nc2nc(-c3ccco3)nn2C1c1cccc(C)c1 (configuration not stated)
 : -7%	-27%
CCN(CC)CCOC(=O)c1ccc(NC(=O)CCn2c(=O)oc3ccccc32)cc1
 : -15%	0%
CC(C)OCCCNC(=O)CN1C(=O)c2ccccc2Sc2ncccc21
 : -31%	-8%
COc1cccc(NC(=O)CSC2=Nc3ccccc3C3=NC(CC(=O)NCc4ccccc4OC)C(=O)N23)c1 (configuration not stated)
 : -7%	-1%
Cc1ccc(S(=O)(=O)N2CCc3cc(C(=O)NCCc4ccccc4)ccc32)cc1
 : -34%	-21%
Cc1cc(C)c(NC(=O)C2CCN(S(=O)(=O)c3c(C)noc3/C=C/c3ccccc3F)CC2)c(C)c1
 : 5%	-17%
CCN(CC)c1ccc(NC(=O)c2cc(C)nc3c2c(C)nn3-c2ccc(C)cc2)c(C)c1
 : -16%	-5%
CC1CCCCN1C(=O)Cn1c(=O)n(-c2ccc(Cl)cc2)c(=O)c2c3c(sc21)CCC3 (configuration not stated)
 : -7%	-9%
CCc1nn2c(=O)cc(COC(=O)c3cccc(NC(=O)c4cccs4)c3)nc2s1
 : -20%	-4%
CCc1nn(CC(=O)Nc2ccc(C)cc2C)c(=O)c2cc3sccc3n12
 : -8%	10%

Further results
Second line of a record: PMP22 txn prim	HTT prom inh
Cc1ccn2c(Nc3ccc4c(c3)OCO4)c(-c3ccc(Cl)cc3)nc2c1
 : -8%	3%
Cc1cn2c(=O)cc(COC(=O)c3ccc(NC(=O)C(C)Oc4ccccc4)cc3)nc2s1 (configuration not stated)
 : -1%	-13%
COc1cc2c(=O)n(Cc3ccccc3Cl)c(=O)n(CC(=O)Nc3ccccc3)c2cc1OC
 : -10%	-17%
Cc1nnc(NC(=O)CSc2nccn2Cc2ccc(Cl)cc2)s1
 : ?	-24%
COCCCNC(=O)c1cc2c(=O)oc3ccc(C)cc3c2s1
 : ?	-17%
CCc1ccccc1N(C)C(=O)c1cc2c(s1)-c1c(C)cccc1OC2
 : -14%	-16%
Cc1ccc(NC(=O)C2=CC(c3ccc4c(c3)OCO4)=NS(=O)(=O)N2C)cc1
 : 15%	-9%
CC(=O)OCc1cc(=O)n2nc(C3CCCCC3)sc2n1
 : 7%	6%
CCOC(=O)c1ccc(NC(=O)Cn2cnc3sc(C(=O)OCC)c(C)c3c2=O)cc1
 : -6%	-30%
COc1ccc(CN(C(=O)Nc2ccccc2)c2ccccn2)cc1OC
 : ?	7%
CCN1C(=O)c2ccccc2S(=O)(=O)c2ccc(C(=O)NCc3ccc(OC)cc3)cc21
 : 18%	-13%
CCOC(=O)N1CCc2c(sc(NCc3cccc(F)c3)c2C(=O)Nc2ccc(OC)cc2OC)C1
 : 4%	?
Fc1ccccc1Cc1cn2cc(-c3ccc(Cl)cc3)nc2s1
 : -10%	3%
COc1ccc(CNC(=O)Cn2c(=O)n3nc(-c4cccc(F)c4)nc3c3ccccc32)cc1OC
 : -20%	2%
Cc1cc(C)cc(-n2c(SCC(=O)NCC3CCCO3)nc3c([nH]c4ccccc43)c2=O)c1 (configuration not stated)
 : -19%	25%
CSc1nc(C)cc(Nc2c(C)cc(C)cc2C)n1
 : -14%	?
CCOc1ccc(-c2nonc2NC(=O)c2oc3cc(C)ccc3c2C)cc1
 : -42%	?
Cc1cc(C)c(S(=O)(=O)Nc2cccc(-c3cn4ccccc4n3)c2)c(C)c1
 : ?	-6%
CCOC(=O)c1c(NC(=O)c2cc(C(C)C)on2)sc(C(C)=O)c1C
 : ?	6%

Only part of the results is shown, so the mix of outcomes need not match the whole.
